From PubChem BioAssay
TRPML1 blocker: qHTS for Inhibitors of the Human Mucolipin Transient Receptor Potential 1 (TRPML1); Mucolipin-1 (Homo sapiens), Q9GZU1; TRPML1-inducible cells, Ca2+ dye fluorescence, FDSS; hits give low values; inhibition of EC80 agonist-evoked calcium signal; activity change, negative = inhibition, % (concentration not given with the values); hit rate 0.02% among 390,000; AID 624415, 2012; in the data active means activity change below about -50%; inconclusive means about -30% to -50%; inactive means above about -30%;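 note: stimulus is agonist 54-4 at its EC80 concentration; % is set by controls: 0 for no effect and ±100 for the full control effect; compound concentration not given in the record; the text of the record puts the active cut at -80%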
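Calcium fluorescence in TRPML1-DL cells induced overnight with Tet: a 110 s read after compound pin addition, then a 110 s antagonist read after challenge with 54-4 at 4 uM final (EC80).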
CtBP-E1A inh: qHTS Assay for Inhibitors of the CtBP/E1A Interaction | CtBP / adenovirus E1A interaction (AlphaScreen) | AlphaScreen GST-E1A/His-CtBP binding, 1536-well; hits give low values; control for the full effect not named in the record | activity change, % (test concentration not listed) | hit rate 0.49% among 340,000 | AID 651724, 2012; in the data active means activity change below about -65%; inconclusive means about -30% to -65%; inactive means above about -30%; note: % is set by controls: 0 for no effect and ±100 for the full control effect; compound concentration not given in the record
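Homogeneous bead-based format: GST-tagged E1A captured on glutathione donor beads, His-tagged CtBP on nickel acceptor beads; compounds precede bead addition by 2 h at 37 °C.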
TRPML1 agonist: qHTS for Agonists of the Human Mucolipin Transient Receptor Potential 1 (TRPML1); Mucolipin-1 (Homo sapiens), Q9GZU1; TRPML1-expressing cells, Ca2+ dye fluorescence, FDSS; host cell line not named in the record; reference of the full effect not given here; activation, % (test concentration not listed); hit rate 0.12% among 410,000; in the data active = activation above about 50%; inconclusive = about 30% to 50%; inactive = below about 30%; note: 0% is about no effect; the text of the record puts the active cut at 80%
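TRPML1-DL cells, Tet-induced overnight (~16 h, 37 degrees C), loaded 45-90 min at room temperature with Ca8 no-wash calcium dye plus quencher. FDSS fluorescence: 10 s baseline, compound pin-transfer, 110 s agonist read, then EC80 54-4 (4uM final) and 110 s antagonist read.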
D2 ag: Beta-Arrestin HTS for Positive Allosteric Modulators of the Human D2 Dopamine Receptor: Agonists | D(2) dopamine receptor (Homo sapiens), P14416 | DiscoveRx PathHunter D2 beta-arrestin, luminescence, 90 min; 100% = 57 uM dopamine signal | activation, % (no concentration beside the values) | hit rate 0.084% among 360,000 | AID 624465, 2012; in the data active = activation above about 40%; inconclusive = about 15% to 40%; inactive = below about 15%; note: compound concentration not given in the record; the text of the record calls up to 30% inactive
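Agonist mode: compounds alone added to overnight-plated D2 PathHunter cells for 90 min at 37 C, with 57 uM final dopamine (EC100) defining full response. Beta-arrestin recruitment detected by chemiluminescent reagent, read after 1 h at ambient temperature.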
PINK1 modulator: A Quantitative High throughput Screen to Identify Chemical Modulators of PINK1 Expression | PINK1 immunofluorescence, high-content cytometry, 24 h | Potency, µM (doses to about 76.6 µM), inactives show top-dose activation (PINK1 increase), usual class: activators | hit rate 0.2% among 410,000; active = well fitted activation curve with a large enough effect; inconclusive = small, poorly fitted or top-dose-only effect; inactive = flat fitted curve, though single readings scatter; cell line not stated here;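 note: potency is the fitted concentration of half-maximal effect; % of control where 0% means no effect; nearly all actives have a fitted effect of over 65% in size; a mitochondrial uncoupler was the plate control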
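Stable cell line, 250 cells/well, 12 h attachment; compounds pinned at 5 concentrations, 24 h; CCCP control. Fixed with nuclear dye, primary antibodies 12 h at 10 degrees C, secondary plus cell stain; laser-scanning cytometer read.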
Six1-Eya2 blk: qHTS Assay for Inhibitors of the Six1/Eya2 Interaction | Homeobox protein SIX1 (Homo sapiens) + Protein phosphatase EYA2 (Homo sapiens), … | AlphaScreen GST-Six1/His-Eya2 binding, biochemical; hits give low values; control for the full effect not named in the record | activity change, % (no concentration beside the values) | hit rate 0.56% among 360,000; in the data active = activity change below about -65%; inconclusive = about -30% to -65%; inactive = above about -30%; note: % is set by controls: 0 for no effect and ±100 for the full control effect; compound concentration not given in the record
Target sequence (O00167 whole entry, looked up): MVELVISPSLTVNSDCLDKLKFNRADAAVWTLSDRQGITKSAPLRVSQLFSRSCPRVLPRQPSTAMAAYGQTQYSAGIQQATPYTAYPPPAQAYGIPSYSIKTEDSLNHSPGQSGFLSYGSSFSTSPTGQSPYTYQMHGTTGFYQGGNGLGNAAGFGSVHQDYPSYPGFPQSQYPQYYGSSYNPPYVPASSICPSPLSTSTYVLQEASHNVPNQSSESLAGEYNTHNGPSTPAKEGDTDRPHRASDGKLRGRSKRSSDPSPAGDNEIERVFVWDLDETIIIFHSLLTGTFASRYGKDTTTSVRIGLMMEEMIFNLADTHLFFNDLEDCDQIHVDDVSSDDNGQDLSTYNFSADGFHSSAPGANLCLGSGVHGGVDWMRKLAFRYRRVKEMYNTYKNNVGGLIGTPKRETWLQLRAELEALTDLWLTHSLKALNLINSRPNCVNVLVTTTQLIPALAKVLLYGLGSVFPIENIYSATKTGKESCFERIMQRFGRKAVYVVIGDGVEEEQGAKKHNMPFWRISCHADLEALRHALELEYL
Target sequence (Q15475 whole entry, looked up): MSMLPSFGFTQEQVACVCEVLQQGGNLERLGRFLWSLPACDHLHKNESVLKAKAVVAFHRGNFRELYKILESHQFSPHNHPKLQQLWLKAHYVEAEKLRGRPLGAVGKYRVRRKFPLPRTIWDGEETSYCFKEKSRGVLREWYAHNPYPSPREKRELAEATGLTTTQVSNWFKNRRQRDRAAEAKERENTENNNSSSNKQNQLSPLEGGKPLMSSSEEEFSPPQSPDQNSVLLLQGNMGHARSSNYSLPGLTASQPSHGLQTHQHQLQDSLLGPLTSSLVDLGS
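GST-Six1 + His-Eya2 (5X stock: 250/500 nM); Tris pH 8.0, 300 mM NaCl, 0.05% BSA, 0.02% Tween 20; GSH donor/Ni acceptor beads; 1 h 37 °C dark; AlphaScreen readout.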
Active calls of the source: *; u = inconclusive; x = no result given; & = joins results of further samples; [ ] = dose if it differs, or a comment.

mol	TRPML1 blocker	CtBP-E1A inh	TRPML1 agonist	D2 ag	PINK1 modulator	Six1-Eya2 blk
CCOC(=O)c1cc2c(=O)n3ccccc3nc2n(CC(C)C)c1=NC(=O)C(C)Oc1ccccc1 (stereo not given)	-1	x	-0.2	x	7.1%	x
COc1ccc(CN2CCN(Cc3ccccc3C(F)(F)F)CC2)c(OC)c1	-4	3	-1.0	-0.6	28%	-9
COc1cccc(C=NNC(=O)c2ccncc2)c1O	-5	-94*	-0.3	6.1	-0.5%	-80*
CCN(CC)C(=O)C1=C(C)N(CCC2=CCCCC2)C(=O)C(CC(=O)NCC2CCCCC2)C1 (stereo not given)	-4	-2	-0.1	-8.1	-0.5%	1
COc1ccc(Br)c2c1-c1nc(NC(=O)c3ccc(F)cc3)sc1C2	-24	x	0.3	x	1.7%	x
CCOCCCNC(=O)c1cc2c(=O)n(C)c3ccccc3c2n1C	15	x	-0.8	x	5.1%	x
CCCNC(=O)c1cc(C2CCCCN2C(=O)OCCF)on1 (stereo not given)	x	-5	-0.7	-6.3	2.7%	-2
Cc1cc(C(=O)NNC(=S)NC(=O)/C=C/c2ccccc2Cl)n[nH]1	19	-99*	1.1	-3.2	2.5%[38.3 µM]	-91*
COc1cccc(NC(=O)CCC(=O)Nc2cc(OC)c(NC(=O)c3cccs3)cc2OC)c1	-5	-82*	3.3	2.7	-0.6%	-69*
COC(=O)CCCc1nc2ccccc2s1	5	-1	-0.1	-0.5	-1.3%	13
CC(C)N1CCC(=NNc2ccc([N+](=O)[O-])cc2S(=O)(=O)N2CCOCC2)CC1	26	-9	0.5	-2.1	-0.3%	u
CCOc1ccc(OCC)c(NC(=O)CN2CCC(NC(=O)c3cccc(F)c3)CC2)c1	-7	1	-0.8	-1.6	-19%[38.3 µM]	-6
Cc1ccc(NC(=O)C2CC(Cl)=CCC2C(=O)O)c([N+](=O)[O-])c1 (stereo not given)	-10	x	-0.4	-0.8	0.4%	6
Cc1ccccc1N1CCN(C2CCCN(C(=O)c3cnsn3)C2)CC1 (stereo not given)	12	-2	-1.0	-1.1	0.5%	-2
Cc1cc(C)c(C)c(S(=O)(=O)N2CCC(C(=O)Nc3ccccc3N3CCOCC3)CC2)c1C	-2	4	1.5	-3.5	-1.3%	-1
CC(NC(=O)c1ccc(F)cc1)C(=O)NC1=NCCS1 (stereo not given)	4	-1	-0.6	-3.7	-0.2%	-1
Cc1cc2c(cc(C(=O)NCCCN3CCOCC3)n2Cc2ccc(Cl)cc2)o1	3	u	0.2	0.3	24%[38.3 µM]	-26
CC1(C)CC(=O)c2sc(NC(=O)CN3CCOCC3)nc2C1	-12	2	0.4	-3.9	0.0%	4
CS(=O)(=O)NCCSc1nnnn1-c1ccccc1	19	1	-0.4	-0.9	1.7%	4
CCc1ccc(-c2cc(C(F)(F)F)n3nc(C(=O)Nc4cnn(Cc5ccc(C)cc5)c4)cc3n2)s1	19	12	0.4	-0.9	-1.8%[38.3 µM]	3
O=C1CN(C(=O)COc2ccccc2F)c2ccccc2N1	20	10	0.2	-0.2	1.8%	5
COc1ccc(NC(=O)C2=NN(C3CCS(=O)(=O)C3)C(=O)CC2)cc1S(N)(=O)=O (stereo not given)	4	7	-0.1	-0.5	-0.7%	1
Cc1ccc(/C=C/C(=O)OCC(=O)NCc2ccc(Cl)cc2)o1	5	3	0.7	2.0	5.2%	-1
CC1CC(=O)C2=C(C1)Nc1ccccc1SC2c1ccc(F)cc1 (stereo not given)	1	x	1.0	-4.6	0.9%	-8
CC1CCCN(C(=O)COC(=O)COc2ccc(Cl)cc2)C1 (stereo not given)	5	0	1.0	0.7	-1.2%	2

Just TRPML1 agonist, for 2 of the compounds above:
Molecule	TRPML1 agonist
CCc1ccc(-c2cc(C(F)(F)F)n3nc(C(=O)Nc4cnn(Cc5ccc(C)cc5)c4)cc3n2)s1	0.4
O=C1CN(C(=O)COc2ccccc2F)c2ccccc2N1	0.2

(cont.)
mol	TRPML1 blocker	CtBP-E1A inh	TRPML1 agonist	D2 ag	PINK1 modulator	Six1-Eya2 blk
COc1ccc2c(C=O)cn(C)c2c1	3	13	0.5	3.2	-1.5%	0
CN(C(=O)c1ccccc1C(=O)OCC(=O)NCc1ccccc1)C1CCCCC1	u	x	1.7	-4.7	-1.5%	12
CCOC1=C2[C@H](c3ccccc3F)N(S(=O)(=O)c3ccc(C)cc3)C[C@H]2n2c(=O)n(-c3ccccc3)c(=O)n2C1	-3	0	0.2	-4.1	-0.1%	-3
CCOc1ccc(CC(=O)NCCc2csc(-c3ccc(C(F)(F)F)cc3)n2)cc1	8	x	1.2	x	0.4%	x
CCC(C)(C)NC(=O)C(c1ccc(F)cc1)N(CCOC)C(=O)CCC(=O)Nc1nccs1 (stereo not given)	-4	6	-0.5	1.4	-1.6%	-2
Cc1ccccc1CNC(=O)c1ccccc1NS(C)(=O)=O	0	-16	-0.4	2.1	-0.8%	0
Cc1ccc(C(=O)O/N=C(\N)c2ccccn2)c(C)c1	-8	-28	-0.4	9.6	-1.9%	-15
CCCCNC(=S)N(C)/N=C/c1c(F)c(F)c(F)c(F)c1F	50	-2	6.3	-0.9	-1.7%	12
CCCC(C)NC(=O)CSc1nnc(-c2c[nH]c3ccccc23)o1 (stereo not given)	9	-1	0.9	2.9	2.1%	-4
COc1ccc2c(c1)-c1c(ssc1=S)C(C)(C)N2S(=O)(=O)c1ccc(C)cc1	48	-5	1.7	-5.5	18%	u
CCOc1ccccc1N1CCN(C(=O)c2cc(S(=O)(=O)N(C)C)ccc2N2CCCC2)CC1	0	-6	-0.7	-1.3	1.8%	-3
Cc1ccc(S(=O)(=O)N(CC(=O)Nc2ccc(Cl)cc2)C(=O)N2CCN(C)CC2)cc1	-15	10	0.4	-4.2	-4.9%	0
O=C(NCc1cccnc1)C1CCCN(S(=O)(=O)c2ccc(Br)cc2)C1 (stereo not given)	1	9	0.0	-0.4	-2.4%	4
CCOc1ccccc1N1C(=O)c2ccc(S(=O)(=O)c3ccc(C(=O)O)cc3)cc2C1=O	16	5	-0.1	-4.0	2.2%	-8
CN(C)S(=O)(=O)c1cccc(NC(=S)NCc2ccco2)c1	31	-8	1.4	1.3	1.1%	-4
CCOC(=O)N1CCN(C(=O)CCl)CC1	-21	10	0.8	-2.0	0.5%	18
O=C(NCC1COc2ccccc2O1)c1ccco1 (stereo not given)	-4	1	1.3	-1.1	-1.8%	0
CC1(NC(=O)CSc2nnc(-c3c[nH]c4ccccc34)n2C2CC2)CCS(=O)(=O)C1 (stereo not given)	-13	x	0.1	-3.4	-0.2%	-2
COc1ccccc1CNC(=O)CCC(=O)N1CC(C)Sc2ccccc21 (stereo not given)	8&-2	-1	1.3&2.2	-9.5	1.0%&-0.7%	1
Cc1cccc(NC(=O)CNC(=O)[C@H]2O[C@@H](n3ccc(=O)[nH]c3=O)[C@H](O)[C@@H]2O)c1C	x	9	0.1	0.9	1.5%	-2
Cc1cc(=O)oc2cc(OCC(=O)NC3CC(C)(C)NC(C)(C)C3)c(Cl)cc12	15	x	0.2	-8.7	-0.3%	-2
O=C(COC(=O)/C=C/c1ccc(Cl)cc1)NC1CCCC1	0	x	-0.7	-4.9	0.7%	-2
O=C(/C=C/c1ccccc1)CCN1CCCCC1	-6	1	2.6	-5.5	2.3%	8
COc1ccc(N2CSC3=C(C#N)C(c4cccc(OC)c4OC)CC(=O)N3C2)cc1 (stereo not given)	0	0	0.1	14	-0.7%	-12
COc1ccc(C2c3[nH]c4ccccc4c3C[C@H]3C(=O)N(C4CCN(Cc5ccccc5)CC4)CC(=O)N23)cc1OC (stereo not given in full)	x	-3	x	-4.1	1.5%	u

mol	TRPML1 blocker	CtBP-E1A inh	TRPML1 agonist	D2 ag	PINK1 modulator	Six1-Eya2 blk
Cc1cccc(CC(=O)NC2CCS(=O)(=O)C2)c1 (stereo not given)	11	-1	-0.6	-2.1	3.2%	4
CC(C)NC(=O)Nc1ccc(Br)cc1Cl	-2	-4	-0.2	3.4	2.3%	4
COc1ccc(CNC(=O)CN(Cc2ccccc2)C(=O)c2csnn2)cc1	29	1	0.2	-3.6	1.6%	7
COc1ccc(OCC(=O)Nc2cccc(C(C)=O)c2)cc1	2	-8	-0.2	-1.8	0.9%	-12
O=C(NCc1ccco1)/C(=C/C=C\c1ccccc1)NC(=O)c1ccc(Br)o1	-6	4	-0.1	-2.7	0.2%	-6
Cc1cc(NC(=O)c2ccc(C#N)cc2)n(-c2ccccn2)n1	54	-9	0.0	-7.3	2.7%	1
COc1ccc(N2CC(NC(=O)CCc3ccccc3)CC2=O)cc1OC (stereo not given)	10	x	-0.2	x	0.4%	x
O=S(=O)(c1ccccc1)N(CC1CO1)c1cccc2ccccc12 (stereo not given)	10	-1	1.6	-3.1	-1.3%	-10
O=[N+]([O-])c1cccc(S(=O)(=O)N/N=C\c2ccc3c(c2)OCO3)c1	8	-3	2.6	-5.7	0.2%	2
CC(C)Oc1ccc(CN2CCC2(C)C(=O)Nc2ccc(Cl)c(Cl)c2)cc1 (stereo not given)	x	15	0.0	-3.2	6.9%	8
O=C(c1ccc(N2CCOCC2)nc1)N1CCCCC1	0	4	-0.2	-2.2	3.2%[38.3 µM]	0
CC(C)N(Cc1nc(-c2ccccc2)no1)C(=O)c1ccc2c(c1)OCO2	-1	0	1.4	1.2	u	1
Cc1ccsc1/C=N/n1c(-c2ccccn2)n[nH]c1=S	-6	u	0.1	-0.9	-0.1%	-78*
OC1O[C@H](c2ccc3c(c2)OCO3)[C@H]2CO[C@H](c3ccc4c(c3)OCO4)[C@@H]12 (stereo not given in full)	-6	0	-0.9	-2.1	1.0%	-2
COc1ccc(C2=NO[C@@H]3C(=O)N(Cc4ccccc4)C(=O)[C@H]23)cc1OC	-2	-2	1.1	1.6	-0.2%[38.3 µM]	-1
Cn1c(=O)c2cc(S(=O)(=O)N3CCC(c4ccccc4)CC3)ccc2n(C)c1=O	6	5	0.6	1.3	x	2
Cc1oc(CC(C)C)cc1C(=O)Nc1cccc2ccccc12	45	4	1.1	-1.7	1.9%	7
CNC(=O)/C(C#N)=C/c1c(N2CCN(c3ccccc3)CC2)nc2c(C)cccn2c1=O	-4	-20	0.3	2.7	10%	-22
CC(C)=C1C2CCC1C1C(=O)N(c3nccs3)C(=O)C21 (stereo not given)	3	12	-0.4	1.9	0.2%	6
